Bead autofluor – flagged as autofluorescent in microsphere protease counterscreen. compound autofluorescence counterscreen, microsphere flow cytometry; active compounds read high. fluorescence intensity (no concentration beside the values). 360,000 compounds, 3.1% hits;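 active means at least 3 SD above the mean of all compounds, about 16000 in these data; inconclusive means too few beads counted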;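 further: 100 nL of 1 mM stock went into each well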
Mtb hypoxia inh – Mtb hypoxia fluorescent reporter inhibition; M. tuberculosis hypoxia-regulated fluorescent reporter, fluorescence; fluorescence inhibition, % (test concentration not listed); 300,000 compounds, 0.1% hits; AID 1159583;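 active means 35 to 45% if threefold the growth effect, above 45% if 1.5-fold the growth effect; inactive means the rest, general growth blockers included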;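 further: wells of about 50 µL received 100 nL stock; 0% = vehicle wells and 100% = reference inhibitor wells; whole bacteria with a GFP reporter of the hypoxia response; strong numbers were not always called active; many hits fall short of the cut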
ugtP null kill – growth inhibition of S. aureus ugtP deletion strain; growth inhibition, % (no concentration beside the values); S. aureus RN4220 ugtP deletion, OD600 growth, 16 h; some inactives read as strong as hits; 330,000 compounds, 0.54% hits; AID 1259309;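 active means z-score under -3 and OD600 up to 0.15 on both plates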;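 further: plate controls were untreated wells for no effect and antibiotic for full effect; wells of about 80 µL received 100 nL stock; the first replicate is given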
PrP 5UTR inh – suppresses PrP 5' UTR mRNA reporter expression | cell-based PrP 5' UTR mRNA reporter, plate reader | inhibition, % (test concentration not listed) | 340,000 compounds, 0.35% hits;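 active means every replicate at 50% or more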;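 further: 0 = median of the neutral control wells; tested in H4 reporter cells; numbers are from one replicate; inactives centre near -14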
BJeLR viability – BJeLR cell viability loss | BJeLR (HRASV12) viability, CellTiter-Glo ATP luminescence, 48 h; reference of the scale not given here | 300,000 compounds, 0.17% hits | AID 1554 | inhibition, % (test concentration not listed);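 active means replicate mean above 50%; inconclusive means above 50% but judged a plate artefact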;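 further: 50 nL library stock added to about 25 µL; numbers are from one replicate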
Sa RN4220 lethal – S. aureus RN4220 growth inhibition | OD600, 16 h | 330,000 compounds, 0.33% hits | inhibition, % (test concentration not listed);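 active means z-score of -3 or lower and OD600 up to 0.18 on both plates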;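 further: plate controls were untreated cells for no effect and reference antibiotic for full effect; stock transfer was 100 nL into about 80 µL; one replicate is shown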
Mtb hypoxia inh growth – further read-out of Mtb hypoxia inh, marked with its call; growth inhibition, %; measured here: M. tuberculosis growth (absorbance);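 0% = vehicle and 100% = reference antibiotic; read after six days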
The depositor's hits bear a star; u = inconclusive; x = no result given.

molecule,Bead autofluor,Mtb hypoxia inh,Mtb hypoxia inh growth,ugtP null kill,PrP 5UTR inh,BJeLR viability,Sa RN4220 lethal
O=c1[nH]c(O)c(C=Nc2ccc(Cl)c(C(F)(F)F)c2)c(=O)[nH]1,3458,7.8,3.7,7.9,-23.5,-5.9,0.0
O=C(NCCc1ccccc1)Oc1ccc(Cl)cc1,5437,13.3,4.0,2.1,-42.6,-3.3,6.2
O=C1CCCCN1CCC(=O)N1CCCC(N2CCN(c3ccccc3)CC2)C1 (configuration not stated),5154,9.0,2.9,1.0,-15.1,9.3,5.3
CCc1cc2c(=O)c(Oc3ccccc3F)c(C)oc2c(CN(C)C)c1O,8889,-11.6,6.5,-3.4,-13.4,-3.0,-0.6
c1cncc(CNC2=NCCC2)c1,9737,4.6,3.4,-3.5,-9.3,0.3,2.3
Cc1ccc(CS(=O)(=O)c2ncc(Cl)c(C(=O)Nc3nnc(C(C)C)s3)n2)cc1,4394,x,x,x,13.2,6.7,x
COc1ccc(/C=N/OCC(=O)Nc2nc3ccccc3s2)cc1,2726,x,x,x,-30.0,8.8,x
Cc1ccc(-c2nnc(SCC(=O)N/N=C/c3ccc(C(=O)O)cc3)n2C2CCCCC2)cc1,4288,x,x,x,-22.7,-0.3,x
CN(CC(=O)Nc1cccc(F)c1)C(=O)C1CC(=O)N(Cc2ccco2)C1 (configuration not stated),4849,2.1,0.5,1.7,-21.2,-7.6,-2.2
Cc1occc1C(=O)Nc1nnc(C(F)(F)F)s1,8021,2.1,-4.6,20.1,-0.3,-1.2,31.3
O=c1c2ccccc2nc2n1C(CBr)CN2 (configuration not stated),4318,7.6,-5.9,2.8,8.6,3.0,6.5
CCC(C)NC(=O)CSc1nnc(-c2ccc(Cl)cc2)n1N (configuration not stated),3246,1.2,8.1,5.7,-5.8,9.9,4.3
Cn1c(CNC(=O)CNS(=O)(=O)c2ccc(Br)cc2)cc(=O)n(C)c1=O,5314,11.5,3.8,4.4,-18.5,1.6,1.8
C/C(CC(=O)Nc1ccc(N(C)C)cc1)=N\NC(=O)c1ccc([N+](=O)[O-])cc1Cl,4194,x,x,x,-21.9,-6.6,x
COc1ccc(OC)c(N2C(=O)NC(=O)/C(=C/c3ccc([N+](=O)[O-])s3)C2=O)c1,3161,4.1,-1.1,-2.8,-9.2,-4.2,4.7
CCCOC(=O)c1c(-c2ccc(C)cc2C)csc1NC(=O)C1C2CCC(O2)C1C(=O)O (configuration not stated),2490,5.1,-5.3,81.6,-15.9,-3.0,11.7
COc1ccccc1/C=C/C(=O)c1c2c(c(C)[nH]c1=O)CCCC2,21882*,1.7,11.6,-10.2,4.4,x,-4.5
CN(C)CCSc1nc(-c2ccccc2)nc2c1CCC2,2716,5.1,0.4,6.5,-26.8,6.5,2.6
c1ccc(-c2nnc(N3CCN(c4ccccc4)CC3)nc2-c2ccccc2)cc1,x,12.7,-5.0,80.0,x,-9.3,-2.0
Cc1nnc(NC(=O)c2ccc(S(=O)(=O)N3CC(C)OC(C)C3)cc2)o1 (configuration not stated),6142,4.1,12.6,-1.0,-15.6,-0.4,-0.3
CN(C)C(=O)CN1C(=O)NC2(CCCc3ccccc32)C1=O (configuration not stated),4684,11.5,-4.4,9.8,-23.5,4.4,3.3
CCOC(=O)c1nnc(-c2ccc(C)cc2)nc1Oc1ccc(Cl)cc1Cl,2352,x,x,-9.8,-15.0,5.3,0.6
Cc1cc(C)c[n+](-c2nc3ccccc3nc2[N-]S(=O)(=O)c2ccc(Br)s2)c1,2951,-7.3,5.3,6.0,-25.1,-0.5,-2.4
CCN(CC)S(=O)(=O)c1ccc(N=NC2=C(O)CCCC2=O)cc1,2583,11.8,0.6,14.0,-9.6,-6.8,7.3
CNS(=O)(=O)c1cccc(C(=O)Nc2cccc(Cl)c2)c1,3619,x,x,7.5,-29.1,2.2,-2.4
COc1ccc(/C=C/C(=O)NNC(=O)C(C)Oc2ccccc2F)cc1OC (configuration not stated),3534,2.0,10.4,0.0,9.7,x,1.3
CCn1cc(SCC(=O)Nc2cc(C)on2)c2ccccc21,5868,3.4,1.0,3.3,-19.3,-7.0,-10.2
COc1ccc(OC)c(CNC(=O)C2CCCN(C(=O)N(C)C)C2)c1 (configuration not stated),6901,1.4,3.8,0.6,-10.3,0.8,-0.3
Nc1nc(CN2CCCCCC2)nc(Nc2ccccc2)n1,4495,2.0,14.4,0.6,-35.7,2.8,4.0
NS(=O)(=O)c1ccc2nc(NC(=O)CS(=O)(=O)c3ccc(F)cc3)sc2c1,4384,6.9,0.6,-4.1,1.1,-3.7,1.0
COC(=O)C1=C(c2ccc(F)cc2F)C[C@@H]2CC[C@H]1N2C(=O)NC1CCCCC1,3500,0.3,10.4,-9.0,-2.6,x,-17.8
COc1cccc(CNS(=O)(=O)c2c(C)[nH]c(C)c2C(=O)N2CCCC2)c1,6883,-2.8,3.8,4.1,-0.1,-3.6,2.8
O=S(=O)(c1ccc2nc(N3CCN(c4ccccc4)CC3)ccc2c1)N1CCCCC1,4579,6.7,-4.6,8.1,-10.6,4.9,3.8
O=C1C=C(c2cccs2)C[C@H](c2ccccc2)[C@H]1n1nnc([N+](=O)[O-])n1,2010,20.6,12.7,97.8*,-39.1,82.6*,72.0
Cc1ccccc1NC(=O)N1CCCC1C(=O)NCc1cccs1 (configuration not stated),3083,1.2,-8.4,7.1,-5.0,-6.6,9.0
Nc1cccc(-c2cn(-c3cc4cc(C#CC5(O)CCCCC5)ccc4oc3=O)nn2)c1,3582,-10.0,8.5,18.5,-5.4,x,8.3
CN1CCN(C(=O)c2ccc(N(Cc3ccccc3Cl)S(C)(=O)=O)cc2)CC1,3643,x,x,10.2,-20.8,-9.3,0.9
COCC(C)NCc1ccccc1C (configuration not stated),2865,x,x,1.0,-18.8,-1.2,1.9
CCc1ccccc1OCC(=O)N(CC)CC(=O)NCc1ccc(F)cc1,2085,1.0,8.3,-0.8,-14.6,x,1.5
CS(=O)(=O)c1cnc(-c2cccnc2)nc1N,4606,8.6,8.5,1.0,-3.8,-7.9,0.9
CC12CCC(C(=O)Nc3cccc(NC(=O)C45CCC(C)(C(=O)O4)C5(C)C)n3)(OC1=O)C2(C)C,3209,x,x,7.1,1.6,-10.9,5.3
CC(CC(=O)Nc1ccc(Cl)cc1Cl)=NNC(=O)c1ccncc1,x,x,x,0.5,x,x,3.6
O=C(NCc1cccnc1)c1ccc(COc2ccc(Cl)cc2)cc1,2365,12.2,-6.5,17.7,-17.7,5.4,9.8
CC12CCC(=O)N1C(C(=O)OCC(=O)Nc1ccc(C(F)(F)F)cc1)CS2 (configuration not stated),8066,2.7,4.8,3.3,-21.1,x,3.2
O=C1OC(NCc2cccnc2)(c2ccc(Cl)cc2)c2ccccc21 (configuration not stated),4346,1.4,3.9,7.5,-7.4,-1.8,8.1
N#Cc1c(-c2ccccc2)ccn(Cc2cccc(Cl)c2)c1=O,4744,x,x,2.2,-19.0,0.9,-4.0
COc1ccc(C2CCCN2C(=O)Nc2ccc(F)cc2)cc1OC (configuration not stated),6167,-5.4,4.7,-12.5,-23.3,-1.6,-1.4
CN(C)c1ccc(CNC2CC(C)(C)NC(C)(C)C2)cc1,9379,4.3,6.9,-9.2,-29.4,3.5,-3.6
Cc1ccc(NC(=O)C(C)[n+]2ccccc2)cc1[N+](=O)[O-] (configuration not stated),2637,-0.2,4.2,1.4,-19.9,2.1,0.9
COc1ccc(Cn2c(-c3ccco3)nc3c(c(=O)c4ccccc4n3C)c2=O)cc1,3578,12.2,1.2,0.0,-4.5,2.5,1.9

The list goes on.
molecule,Bead autofluor,Mtb hypoxia inh,Mtb hypoxia inh growth,ugtP null kill,PrP 5UTR inh,BJeLR viability,Sa RN4220 lethal
Cc1ccc(OCC(=O)NNC(=O)c2cccnc2)cc1,3490,20.7,8.7,3.0,-4.9,3.8,3.5
CS(=O)(=O)c1ccc(Cl)c(NC(=O)CNC(=O)c2ccc3c(c2)OCO3)c1,3533,-6.6,7.5,0.9,-8.3,x,-0.2
CCCCC(c1nnnn1C1CCCC1)N1CCN(C2CCCCC2)CC1 (configuration not stated),3742,x,x,-2.0,-14.2,4.8,-1.9
CCc1ccc(-c2cc3c(=O)n(CC(=O)NCc4ccccc4F)ncn3n2)cc1,4605,9.8,2.0,3.2,-57.1,0.9,3.0
C#CCOCCOCCOCCNc1nc(N2CCN(C(=O)[C@H](CCC(=O)O)n3cc(C(N)Cc4ccc(O)cc4)nn3)CC2)nc(N2CCN(C(=O)[C@H](Cc3cc4ccccc4[nH]3)n3cc(C(N)[C@H](C)CC)nn3)CC2)n1 (some centres not stated),3659,x,x,x,-12.2,0.4,x
C=CCn1c(C)cc(C(=O)COC(=O)/C=C/c2c(C)nn(C3CCS(=O)(=O)C3)c2Cl)c1C (configuration not stated),6580,12.2,2.9,-1.5,-13.4,7.0,1.0
O=C(NCc1ccco1)c1cc(-c2ccncc2)nc2ccccc12,9529,8.3,8.2,7.6,-10.5,-5.3,1.5
CC1(C)N=C(N)NC(Nc2ccc(Cl)cc2)=N1,3464,16.0,11.2,-4.1,-17.6,x,-2.0
CS(=O)(=O)c1ccc(Cl)c(NC(=O)Cc2ccccc2F)c1,2162,-0.5,2.5,-4.6,-16.7,7.9,4.8
COc1cc(C(=O)Sc2ccc(Cl)cc2)cc(OC)c1OC,3624,x,x,92.9*,-4.1,8.1,0.9

Fetched by compound from the list above, 3 records:
molecule,Bead autofluor,Mtb hypoxia inh,Mtb hypoxia inh growth,ugtP null kill,PrP 5UTR inh,BJeLR viability,Sa RN4220 lethal
CCc1ccc(-c2cc3c(=O)n(CC(=O)NCc4ccccc4F)ncn3n2)cc1,4605,9.8,2.0,3.2,-57.1,0.9,3.0
CCCCC(c1nnnn1C1CCCC1)N1CCN(C2CCCCC2)CC1 (configuration not stated),3742,x,x,-2.0,-14.2,4.8,-1.9
O=C(NCc1ccco1)c1cc(-c2ccncc2)nc2ccccc12,9529,8.3,8.2,7.6,-10.5,-5.3,1.5

Following part
molecule,Bead autofluor,Mtb hypoxia inh,Mtb hypoxia inh growth,ugtP null kill,PrP 5UTR inh,BJeLR viability,Sa RN4220 lethal
Cc1cccc(N=C2NC(=O)CS2)c1C,7479,0.7,6.5,-5.3,-4.2,0.5,5.9
CC(=O)Nc1ccc(/C(C)=N/Nc2nc(N3CCOCC3)nc(N3CCOCC3)n2)cc1,2752,x,x,x,-28.9,3.1,x
COc1ccc(NC(=O)COc2ccccc2Cl)cc1S(=O)(=O)N1CCCCC1,u,0.8,3.4,-2.4,1.2,x,2.2
CN(N=Nc1cccc([N+](=O)[O-])c1)c1ccccc1,4156,2.5,-12.1,9.8,-39.8,-6.8,5.7
O=Cc1ccc(C(=O)O)cc1,5539,3.2,13.0,4.4,-2.1,x,2.1
O=C(N/N=C/c1cccs1)c1ccc2nc[nH]c2c1,4498,x,x,x,-11.5,-7.9,x
CCc1ccc[n+](-c2[nH]c(=O)sc2/C=N/N=C(\[O-])c2cccnc2)c1,5271,x,x,x,-0.2,0.3,x
Cc1cccnc1NC(=O)CSc1nnc(Cc2ccccc2)o1,16000,8.9,12.9,7.5,-7.3,-8.1,6.2
O=C(NC1CCCCC1)C(c1ccccc1)N(Cc1ccc2c(c1)OCO2)C(=O)c1cnsn1 (configuration not stated),4112,-12.1,-3.4,3.3,-20.5,-1.3,2.3
O=C(CC1CCCCC1)Nc1ccc(-c2ccc3nncn3n2)cc1,4282,7.3,11.1,6.2,-21.5,-24.0,0.8
COc1cc(C(C(=O)NC2CCCC2)N(CCO)C(=O)Cn2nnc(-c3ccc(C)o3)n2)ccc1O (configuration not stated),6249,-13.5,0.2,7.4,-17.4,-10.0,3.3
COc1ccccc1/C=C/C(=O)OCC(=O)Nc1c(F)cccc1F,4520,-0.6,-5.4,-1.8,-32.8,1.6,5.0
COc1ccccc1C(=O)N/C(=C/c1ccccc1)C(=O)NC(CCSC)C(=O)O (configuration not stated),8203,7.1,0.6,4.4,-6.8,9.2,1.9
CCCC(=NNC(=O)c1ccc2c(c1)OCO2)c1cccs1,x,-4.4,-6.7,1.2,x,x,2.5
CCOC(=O)C1C(c2ccc(OC)cc2)N(C)OC1(O)C(F)(F)F (configuration not stated),4935,1.6,3.0,-0.8,-27.3,-6.1,3.0
